VACV mCherry inh – inhibitors of vaccinia virus infection (mCherry reporter signal) | Vaccinia virus mCherry reporter infection, fluorescence; about a quarter of the inactives have no number | Potency, µM (highest dose often 36.5 µM), inactives show at the top dose activity change, negative = inhibition, usual class: inhibitors | 0.63% of 310,000 active | AID 720579; active = well fitted inhibition curve with a large enough effect; inconclusive = small, poorly fitted or top-dose-only effect; inactive = no such curve, though single readings can be large or run the other way; tested in A549 cells; further: nearly all actives have a fitted effect of over 35% in size; inactives centre near -10
VACV Venus inh – inhibitors of vaccinia virus (Venus reporter); Vaccinia virus Venus reporter expression, fluorescence; Potency, µM (series often up to 36.5 µM), inactives show at the highest dose activity change, negative = inhibition, usual class: inhibitors; 0.46% of 330,000 active; AID 720580; active means well fitted inhibition curve with a large enough effect; inconclusive means small, poorly fitted or top-dose-only effect; inactive means no such curve, though single readings can be large or run the other way; tested in A549 cells; further: nearly all actives have a fitted effect of over 30% in size; inactives centre near -10
An asterisk follows results filed as active; i = inactive; ? = inconclusive; nt = not tested or not shown. On the % scale 0 is the no-effect control and ±100 the full control effect; potency means the concentration at half of the fitted maximal effect.

Under each structure – VACV mCherry inh, VACV Venus inh
1) NCCc1nnc(SCC(=O)Nc2ccc(Br)cc2)o1
  i, -11%
2) COC(=O)CCCNC(=O)c1ccc2oc(CCCc3ccccc3)nc2c1
  -3%, -13%
3) CCC1CN(C)C2Cc3c([nH]c4ccccc34)C(=O)CC1C2C(=O)OC (centres undefined)
  -4%, -2%
4) COc1ccc(S(=O)(=O)Nc2nc3c(s2)CCCC3)cc1
  -17%, -19%
5) COc1cc(NC(=O)c2cccc([N+](=O)[O-])c2C)ccc1NC(=O)c1ccco1
  i, -23%
6) CC1(c2ccc(OCC#N)cc2)C=C(c2ccc(OCC#N)cc2)n2nc(C(F)(F)F)nc2N1 (centres undefined)
  ?, -26%
7) CC(C)c1ccc(C(C)NCCS(=O)(=O)c2ccc(Cl)cc2)cc1 (centres undefined)
  -21%, -26%
8) COCCCn1c(=N)c(C(=O)NCc2ccc3c(c2)OCO3)cc2c(=O)n3cccc(C)c3nc21
  -13%, -11%
9) O=C(O)c1cccc(-n2cccc2/C=C2\NC(=O)N(Cc3ccc(F)cc3)C2=O)c1
  i, -11%
10) CN1c2ccsc2C(O)=C(C(=S)Nc2ccc(F)c(Cl)c2)S1(=O)=O
  -9%, -23%
11) Cc1c(NS(=O)(=O)c2cc(C(=O)OCC(=O)N3CCC(C)CC3)ccc2Cl)c(=O)n(-c2ccccc2)n1C
  -1%, -19%
12) CNC(=S)N1N=C(c2ccc(Br)cc2)CC1c1ccc(N(C)C)cc1 (centres undefined)
  -16%, -8%
13) COC(=O)CSc1nc(C)cc(N2CCOCC2)n1
  i, -11%
14) Cc1ccc(S(=O)(=O)N2CCCCC2)cc1C(=O)NCC1CCCO1 (centres undefined)
  i, -7%
15) O=S(=O)(Nc1cccc2ccccc12)c1ccccc1
  ?, -7%
16) Cc1ccc2c(c1)CCO[C@@]21O[C@H](CCO)C[C@H](O)[C@H]1O
  i, -7%
17) Cc1cccc(C)c1-n1nnnc1C(c1ccnc2ccccc12)N1CCN(CCN(C)C)CC1 (centres undefined)
  -12%, -8%
18) O=C(Nc1cc(Cl)ccc1N1CCCCC1)c1cccs1
  -9%, -3%
19) CC(=O)Nc1ccc(C2(c3ccc(NC(C)=O)cc3)NC(=O)c3ccccc32)cc1
  -15%, -9%
20) Nc1ccc(CC(N)c2csc(Nc3cc(Oc4ccccc4)ncn3)n2)cc1 (centres undefined)
  -28%, -25%
21) CCc1noc(C)c1C(=O)Nc1sc(C(=O)N(C)C)c(C)c1C#N
  i, -12%
22) COc1ccc(-c2cc(C(F)(F)F)nc(SCc3cccc(C(=O)O)c3)n2)cc1
  -12%, -12%
23) CCc1ccc(C2=NNC(=Nc3c(C)n(C)n(-c4ccccc4)c3=O)SC2)cc1
  -22%, -16%
24) Cc1ccn2cc(CCNC(=O)C3CC=CCC3C(=O)O)nc2c1 (centres undefined)
  -5%, 0%
25) Cc1cc(S(=O)(=O)NCc2ccco2)c(C)cc1Cl
  -7%, -17%
26) COc1ccc(C)cc1NS(=O)(=O)c1cn(C)c(=O)n(C)c1=O
  i, -4%
27) CCOC(=O)c1cnn(-c2cc(C)nc3c(-c4ccccc4)c(C)nn23)c1N
  -10%, 0%
28) NS(=O)(=O)c1ccc(CNC(=O)c2ccccn2)cc1
  -11%, -9%
29) CCC(C)[C@H](NC(=O)N1CCn2c1nc1ccccc12)C(=O)NCc1ccccc1 (some centres undefined)
  -10%, ?
30) O=C(CSc1ccccc1C(=O)O)NC1CCCCCCC1
  -16%, -16%
31) CCn1c(=O)cc(OCC(=O)Nc2cc(OC)c(OC)c(OC)c2)c2ccccc21
  -2%, 2%
32) Cc1noc(C)c1C(=O)OCC(=O)N1CCc2ccccc21
  i, -6%
33) N=c1n(CCN2CCCCC2)c2ccccc2n1CC(=O)c1ccc(Cl)c(Cl)c1
  -8%, -8%
34) Cc1ccc(C)c(C(Nc2ccccc2)c2ccc3ccc(C)nc3c2O)c1 (centres undefined)
  7.9µM*, ?
35) Cc1ccc(C)c(NC(=O)c2ccc3nccnc3c2)c1
  i, -3%
36) Cn1cc(Cl)c(C(=O)OCC(=O)Nc2cccc(Cl)c2)n1
  -17%, -3%
37) COc1ccc(Nc2cc(C)nc3ccc(OC)cc23)cc1
  ?, ?
38) COc1cc(OC)c2c(-c3ccccc3)cc(=O)oc2c1
  -3%, -9%
39) O=C(COC(=O)CCc1nc2ccccc2c(=O)[nH]1)NCc1ccc(F)cc1
  -3%, 4%
40) CC(=O)c1cccc(CN2CCN(Cc3ccc(F)cc3)C(CCO)C2)c1 (centres undefined)
  i, 0%
41) COc1ccc(CC(=O)N2CCN=C2SCc2cccc([N+](=O)[O-])c2)cc1
  -17%, -21%
42) COc1ccc(/C=C(\NC(=O)c2ccccc2)C(=O)NCCN2CCOCC2)cc1
  -15%, -14%
43) CC(=O)Nc1cccc(OCc2ccc([N+](=O)[O-])cc2)c1
  -16%, -12%
44) COc1cccc(CNC(=O)c2oc3ccc4c(c3c2C)C(=O)CC(C)(C)O4)c1OC
  -9%, -6%
45) CC(C(=O)N1CCCC1)N(c1ccc(Cl)cc1)S(C)(=O)=O (centres undefined)
  i, -10%
46) COc1cc2c(cc1OC)C1(CCCCC1)CN(C)C2
  -18%, -12%
47) Cc1cc(F)ccc1NCc1ccccc1[N+](=O)[O-]
  ?, 5%
48) O=C(NCCc1cccnc1)c1cc(COc2ccc(F)cc2Cl)on1
  ?, -19%
49) Nn1c(SCc2ccccc2F)nnc1-c1ccncc1
  -3%, -19%
50) Cc1c(S(=O)(=O)NC2CCCCCC2)c(=O)n(C)c(=O)n1C
  -15%, -12%
51) COc1ccc(/C=C(/NC(=O)c2ccco2)C(=O)Nc2ccc(C(=O)O)cc2)cc1
  7%, 1%
52) O=C(Nc1nccs1)C1CCN(S(=O)(=O)c2cnc[nH]2)CC1
  -5%, -3%
53) COc1cc(NS(=O)(=O)c2ccc3c(c2)CC(=O)N3)cc(OC)c1OC
  -16%, -16%
54) Cc1cccc(OCC(=O)NCC(c2cccs2)N2CCOCC2)c1 (centres undefined)
  -16%, 3%
55) O=c1c2cc3c(cc2n(Cc2cccc(Cl)c2)c(=O)n1Cc1nc(-c2ccccc2)no1)OCO3
  -22%, -19%
56) CC(C)(C)n1nc2c(c1NC(=O)Cc1ccc(Cl)cc1)CS(=O)(=O)C2
  i, -9%
57) O=C(Cn1nnc2ccccc21)Nc1ccc([N+](=O)[O-])cc1
  i, 0%
58) O=C(O)c1ccc(Nc2ncc([N+](=O)[O-])cc2[N+](=O)[O-])cc1
  i, 25%
59) COc1ccc(-c2nc(N)n(C(=O)c3ccc(C)cc3)n2)cc1
  -10%, -8%
60) Cn1cc(S(=O)(=O)N2CCOCC2)cc1C(=O)Nc1ccc(Cl)c(C(F)(F)F)c1
  -14%, -14%

Grouped by structure, those above with a thiophene ring, fused or not
Under each structure – VACV mCherry inh, VACV Venus inh
10) CN1c2ccsc2C(O)=C(C(=S)Nc2ccc(F)c(Cl)c2)S1(=O)=O
  -9%, -23%
18) O=C(Nc1cc(Cl)ccc1N1CCCCC1)c1cccs1
  -9%, -3%
21) CCc1noc(C)c1C(=O)Nc1sc(C(=O)N(C)C)c(C)c1C#N
  i, -12%
54) Cc1cccc(OCC(=O)NCC(c2cccs2)N2CCOCC2)c1 (centres undefined)
  -16%, 3%

Returning to the listing, starting 6 compounds before the break.
Under each structure – VACV mCherry inh, VACV Venus inh
55) O=c1c2cc3c(cc2n(Cc2cccc(Cl)c2)c(=O)n1Cc1nc(-c2ccccc2)no1)OCO3
  -22%, -19%
56) CC(C)(C)n1nc2c(c1NC(=O)Cc1ccc(Cl)cc1)CS(=O)(=O)C2
  i, -9%
57) O=C(Cn1nnc2ccccc21)Nc1ccc([N+](=O)[O-])cc1
  i, 0%
58) O=C(O)c1ccc(Nc2ncc([N+](=O)[O-])cc2[N+](=O)[O-])cc1
  i, 25%
59) COc1ccc(-c2nc(N)n(C(=O)c3ccc(C)cc3)n2)cc1
  -10%, -8%
60) Cn1cc(S(=O)(=O)N2CCOCC2)cc1C(=O)Nc1ccc(Cl)c(C(F)(F)F)c1
  -14%, -14%
61) COc1cc(NC(=O)CCn2c(=O)[nH]c3ccsc3c2=O)cc(OC)c1
  -17%, -12%
62) Cc1cc(N(CC(=O)NC2CC2)S(C)(=O)=O)ccc1Br
  -1%, -8%
63) CC(=O)NC1=NC(=O)C(C)S1 (centres undefined)
  nt, -11%
64) COc1ccccc1CNC(=O)c1ccc2c(=O)n(CC3CCCO3)c(=S)[nH]c2c1 (centres undefined)
  i, -8%
65) O=c1c(Cl)c(N2CCNCC2)cnn1C12CC3CC(CC(C3)C1)C2
  -7%, -14%
66) CCN(CC)S(=O)(=O)c1ccc(C)c(NC(=O)COc2ccc(Br)cc2Cl)c1
  -19%, -22%
67) CCOC(=O)c1[nH]c(C)c(CCC(=O)O)c1C
  nt, -6%
68) CCOC(=O)[C@@H]1[C@H]2COc3ccccc3[C@@H]2N2C(=O)N(c3cccc(C)c3)C(=O)[C@]12C
  i, -18%
69) O=c1cc(NS(=O)(=O)c2ccccc2)nc(SCc2ccc(Cl)cc2)[nH]1
  -10%, -23%
70) CCCCOc1ccc(CNC(=O)c2cnc3sc(N4CCCCCC4)nn3c2=O)cc1
  -17%, -12%
71) Cc1cc(NC(=O)CCC(=O)N(CC(=O)NCC2CCCO2)c2ccccc2C)no1 (centres undefined)
  -14%, -13%
72) COc1cccc(C(CNC(=O)c2ccc(Cl)c(S(=O)(=O)N3CCCC3)c2)N(C)C)c1 (centres undefined)
  -27%, -21%
73) CCn1nc(C)cc1C(=O)N1CCCC(N2CCN(c3ccccc3OC)CC2)C1 (centres undefined)
  -11%, -6%
74) NC1=NC[C@H](CC2CCCCC2)N1CCc1cc(C(F)(F)F)cc(C(F)(F)F)c1
  ?, 10µM*
75) COc1ccc(C(=O)NNC(=O)c2ccncc2)cc1
  i, -18%
76) Cc1cc(C)cc(NC(=O)Cn2c(C(F)(F)F)nc3ccccc32)c1
  -2%, -3%
77) CC1C2C(c3ccccc3)N(C)C(=O)N(C)C2N(C)C(=O)N1C (centres undefined)
  nt, -6%
78) O=C(/C=C/[C@H]1O[C@@H](n2ccc(=O)[nH]c2=O)[C@H](O)[C@@H]1O)N[C@@H](Cc1ccccc1)C(=O)O
  22%, 11%
79) O=C(c1ccc2c(c1)OCO2)N1CCN(CCN2C(=O)c3cccc4cccc(c34)C2=O)CC1
  -15%, -9%
80) Cc1csc(=O)n1CCC(=O)OCC(=O)NCc1ccc(F)cc1
  i, -15%
81) O=C(O)CCC(=O)Nc1cccc(C(=O)Nc2cccc(Cl)c2)c1
  nt, -24%
82) CN(CC(=O)Nc1ccccc1Cl)CC(=O)Nc1ccccc1[N+](=O)[O-]
  -6%, -1%
83) O=C(N=Nc1c(O)[nH]c(=O)[nH]c1=O)C1COc2cc3ccccc3cc2O1 (centres undefined)
  -4%, -6%
84) CC(C)N(C(=O)C[n+]1ccsc1N)c1ccccc1
  i, 4%
85) NS(=O)(=O)c1ccc(CNC(=O)CCSCCC(=O)NCc2ccc(S(N)(=O)=O)cc2)cc1
  -9%, 0%
86) O=c1ccn([C@@H]2O[C@H](CNS(=O)(=O)c3csc(-c4ccno4)c3)[C@@H](O)[C@H]2O)c(=O)[nH]1
  i, -5%
87) CC1CC2=C(C(=O)O1)C(C)Nc1ccccc1N2 (centres undefined)
  i, -14%
88) O=S(=O)(NC1CCCCCC1)c1cccc(Cl)c1
  -8%, -15%
89) O=C1CCC(C(=O)N2CCC(CO)CC2)CN1Cc1ccc(Cl)cc1 (centres undefined)
  -1%, -17%
90) CCN(C(=O)COc1ccccc1)C1CCCCC1
  i, -10%
91) Cc1ccc(Cn2nnnc2CN2CCC(c3nc4ccc(Cl)cc4[nH]3)CC2)cc1
  i, ?
92) Cc1cccc(S(=O)(=O)NC(=O)C2(C)CCN2C(=O)c2c(C)noc2C)c1 (centres undefined)
  21%, -6%
93) Cc1cccc(COCC(Cc2ccccc2)N2CCN(C(=O)c3cccc(C)c3)CCC2=O)c1 (centres undefined)
  -16%, -27%
94) Oc1ccc(-n2nnnc2SCc2ccccc2Br)cc1
  i, -22%
95) O=C(CSCc1cccs1)N1CCCC1
  6%, 15%
96) Cc1ccc(-c2c(C(=O)N3CCN(c4cccc(C)c4)C(C)C3)oc(=O)c3ccccc23)cc1 (centres undefined)
  -15%, -14%
97) Cc1noc(C)c1S(=O)(=O)N(C)C[C@H]1OCCCC[C@@H](C)Oc2ccc(NS(=O)(=O)c3cn(C)cn3)cc2C(=O)N([C@H](C)CO)C[C@@H]1C
  -2%, -6%
98) CC(=O)c1cnc2c(-c3ccc(Cl)cc3)c(C)nn2c1C
  nt, -9%
99) O=C(Nc1nc(-c2ccc(F)cc2)cs1)c1cccc(N2C(=O)CCC2=O)c1
  i, -11%
100) CCN(CC)C(=O)CSc1nc2cc3c(cc2c(=O)n1Cc1ccc(OC)cc1)OCO3
  -6%, 2%
101) COc1ccc(NC(=O)c2ccc(-n3cncn3)c([N+](=O)[O-])c2)cc1
  i, -2%
102) Cc1cccc(C(=O)N2CCc3cc(CNC(=O)COc4ccc(Cl)cc4)ccc32)c1
  i, -10%
103) O=C(O)CSc1nnc(-c2cccc(S(=O)(=O)N3CCOCC3)c2)n1-c1cccc(Cl)c1
  i, -11%

Record cards, from the list above.
Results for CC1CC2=C(C(=O)O1)C(C)Nc1ccccc1N2 (centres undefined) : VACV mCherry inh = i; VACV Venus inh = -14%
Results for O=S(=O)(NC1CCCCCC1)c1cccc(Cl)c1 : VACV mCherry inh = -8%; VACV Venus inh = -15%

High-throughput results: PubChem, National Center for Advancing Translational Sciences (NCATS)
